Calb biofilm kill: mixture kills Candida albicans biofilm cells | C. albicans biofilm persisters + clotrimazole, fluorescence viability; primary screen in compound mixtures of four per well | inhibition, % at 7.6 µM | actives 0.02% (n = 120,000) | AID 1242;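 active = inhibition above 30.3% in the primary screen of four-compound pools, then above 30% when the compound was retested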;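 note: compounds exposed to preformed 24 h biofilms for 48 h; the number belongs to the whole pool; some results filed as inactive read as strong as hits; inactives centre near 12; 0% = biofilm with clotrimazole alone and 100% = kill control; retested singly at about 60 µM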
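Test system: C. albicans biofilms. Buffer or medium: RPMI/MOPS medium, pH 7.0. Timing: 48 h compound exposure at 37 °C. Technique: Alamar Blue fluorescence. Evaluation: percent inhibition of biofilm viability.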
* marks the source's active call; other numbers are inactive results. The list is partial; rates above refer to the full screens.

SMILES | Calb biofilm kill
COc1cccc(CN2CCN(Cc3nc(C(C)C)cs3)CC2CCO)c1 (stereo unspecified) | 24
CC(CCc1ccccc1)N(C)CC(O)c1cccc([N+](=O)[O-])c1 (stereo unspecified) | 18
CCCc1nc2ccc(NC(=O)c3cccs3)cc2c(=O)n1Cc1ccccc1Cl | 8
COCCNC(=O)c1ccc2c3n(nc2c1)-c1ccc(C)cc1CO3 | 14
CCN(CCCCCCN)c1ccc2c(=O)[nH][nH]c(=O)c2c1 | 17
CCOC(=O)N1CCN(C(=O)CSc2nc3c(cnn3-c3ccc(C)cc3)c(=O)[nH]2)CC1 | 15
COc1cc([C@@H]2c3cc4c(cc3[C@@H](O)[C@@H](CO)[C@@H]2CO)OCO4)cc(OC)c1O[Si](C)(C)C(C)(C)C | 18
O=C(COC(=O)CNC(=O)c1ccc(-c2ccccc2)cc1)NCc1ccco1 | 9
CC(C)c1cccc(OCCCCN(C)C)c1 | 10
Cc1cc(C)n2nc(C(=O)N3CCCC(CNS(=O)(=O)c4cccs4)C3)cc2n1 (stereo unspecified) | 7
O=C1c2cccc3cccc(c23)C(=O)N1CCc1ccccc1 | 19
COc1ccc(CNC(=O)CN2CCN(C(c3ccccc3)c3ccccc3)CC2)cc1 | 9
O=C(COc1ccccc1F)N/N=C1\CCCc2ccccc21 | 11
O=C(COC(=O)/C=C/c1ccccc1)NCCC1=CCCCC1 | -3
C=CCn1c(SCC(=O)NCC2CCCO2)nnc1-c1ccccc1 (stereo unspecified) | 12
Nc1ncn(-c2ncc(C(F)(F)F)cc2Cl)n1 | 13
Cc1ccc(OCC(=O)N/N=C\c2ccncc2)c(C)c1 | 19
Cc1ccc(CN(C)C(=O)c2ccc3c(c2)NC(=O)CS3)o1 | 5
COc1ccc(/C=N/NC(=O)CCn2cnc(-c3ccccc3)c2-c2ccccc2)cc1 | 22
CC1CCCN(C(=O)c2ccc3c(c2)C(=O)N(CCC2=CCCCC2)C3=O)C1 (stereo unspecified) | 15
COc1cccc(N/C(SCc2ccccc2F)=C(/C#N)C(=O)NCc2cccs2)c1 | 12
COc1ccc(CNC(=O)C(=O)NCCCn2ccnc2)cc1 | 16
Cn1c(=O)c2c(nc(Oc3ccccc3)n2C)n(C)c1=O | 24
CCc1ccc(/C=C2/C(=O)N(C)C(=S)N2CC(=O)OC)s1 | -2
O=C(CCN1C(=O)c2cccc3cccc(c23)C1=O)Nc1ccon1 | 33
Cc1nc(C)c(C(=O)NNC(=O)Nc2ccc(Cl)cc2)s1 | 1
COc1ccc(NC(=O)N2CCN(S(C)(=O)=O)CC2)c(OC)c1 | 22
COc1cc(CCC(=O)Nc2cccc(S(=O)(=O)N(C)C)c2)cc(OC)c1OC | 11
C/C(=N/NC(=O)OC(C)(C)C)c1ccco1 | 19
CC1CC1C(=O)OCC(=O)c1c(N)n(C)c(=O)n(C)c1=O (stereo unspecified) | 10

Looked up above.
CC1CC1C(=O)OCC(=O)c1c(N)n(C)c(=O)n(C)c1=O (stereo unspecified) in Calb biofilm kill is entered as 10
COc1cccc(N/C(SCc2ccccc2F)=C(/C#N)C(=O)NCc2cccs2)c1 in Calb biofilm kill is entered as 12

The list goes on.
SMILES | Calb biofilm kill
N#CC(C#N)=Cc1ccc(OCC(=O)N2CCOCC2)cc1 | 21
CCS(=O)(=O)c1ccc(O)c(NC(=O)COc2ccc(OC)cc2)c1 | 13
COc1ccc(CN2CCN(C(C)C)C(CCO)C2)cc1Cn1cccn1 (stereo unspecified) | 0
O=C(CCc1nnc(-c2ccsc2)o1)NCc1ccccc1OC(F)(F)F | 15
O=C(O)C1CCCN1c1ncccc1[N+](=O)[O-] (stereo unspecified) | 9
COc1ccccc1N1CCN(C(=O)CN2C(=O)c3ccccc3C2=O)CC1 | 12
CCOc1nc(NC(=O)NS(=O)(=O)c2cccc(Cl)c2)nc(-c2ccccc2)n1 | 4
COc1ccc(NS(=O)(=O)c2ccc3nc(COc4cccc5ccccc45)[nH]c3c2)cc1 | 7
Cc1cc(NC2CCCCC2)nc(NCc2ccccc2)n1 | 17
CN(C)S(=O)(=O)c1ccc(NC(=O)Cn2ccsc2=N)cc1 | 16
CC(C)c1ccc(/C=N/NC(=O)c2ccccc2Cl)cc1 | 13
CCOC(=O)c1c(N)sc(C(=O)N2CCCCC2)c1C | 12
CCSc1nnc(-c2ccc(C)cc2)c2ccccc12 | 16
CC1CCN(C(=O)C2CCCCN2S(=O)(=O)c2cccc([N+](=O)[O-])c2)CC1 (stereo unspecified) | 10
NS(=O)(=O)c1ccc(NC(=O)COC(=O)COc2ccc(Br)cc2)cc1 | 25
CCc1cc(-c2nc(N)ncc2-c2ccc(Br)cc2)c(O)cc1OC | 20
CCOc1ncccc1C(=O)Nc1ccccc1F | 14
COc1cc(C2CC(c3cccnc3)=NN2c2ccc(F)cc2)cc(OC)c1OC (stereo unspecified) | 12
CCN(CC)S(=O)(=O)c1cccc(C(=O)Nc2nnc(C)s2)c1 | 18
COc1ccc(/C=C2\C(=O)NC(=S)N2C(=O)c2ccc(F)cc2)cc1 | 22

Some of the entries so far, tab-delimited:
canonical_smiles	Calb biofilm kill
COCCNC(=O)c1ccc2c3n(nc2c1)-c1ccc(C)cc1CO3	14
COc1cc([C@@H]2c3cc4c(cc3[C@@H](O)[C@@H](CO)[C@@H]2CO)OCO4)cc(OC)c1O[Si](C)(C)C(C)(C)C	18

Later entries.
SMILES | Calb biofilm kill
CC(=O)NS(=O)(=O)c1ccc(NC(=O)/C=C/c2ccccc2)cc1 | -7
Cc1[nH]c2ccccc2c1/C=C/c1nc2ccccc2c(=O)[nH]1 | 14
CC(C)CC(=O)NNC(=O)C(C)C | 4
COC(=O)/C=C/C(=O)N1CCN(c2ccccc2C)CC1 | 7
COC(=O)CCCCCCCCC(O)C[N+]1(C)CCOCC1 (stereo unspecified) | 7
O=C(Nc1ccccc1N1CCN(c2ccc(F)cc2)CC1)C12CC3CC(CC(C3)C1)C2 | -9
O=C(Nc1nccs1)c1ccc(COc2ccccc2Cl)o1 | 17
O=S1(=O)CCC(NC(=S)Nc2ccc3ccccc3c2)C1 (stereo unspecified) | 25
OC(C#CCCN1CCCCC1)(c1ccccc1)C1CCCCC1 (stereo unspecified) | 24
CCCCn1nnc(N(C(=O)c2cccs2)C(=O)c2cccs2)n1 | -1
O=C(Nc1ccc(F)cc1)NC1(C(=O)NCc2ccc3c(c2)OCO3)CCCCC1 | 6
CCOC(=O)N/N=C(/c1ccccc1)C1CCCCC1 | 12
NC(=O)c1ccsc1NC(=O)COC(=O)CCOc1ccccc1 | 28
CC(=O)NNc1nc(-c2ccccc2)cs1 | 19
C/C(=N/NC(=O)c1sc(NS(=O)(=O)c2ccccc2)nc1C)c1ccc(F)cc1 | 21
O=C(O)c1ccc(N/N=C/c2ccc(-c3ccc(Cl)cc3Cl)o2)cc1 | 25
Cc1cc2cc(C)c3nnc(SCc4ccccn4)n3c2cc1C | 5
CCCn1c(C)cc(/C=C(\C#N)C(=O)OCC(=O)Nc2ccc(OC)c(Cl)c2)c1C | 23
O=C(O)c1cccc(-n2cccc2/C=C2/NC(=O)N(Cc3ccccc3F)C2=O)c1 | 7
N/C(=N\OC(=O)COc1ccc(Br)cc1)c1cccc([N+](=O)[O-])c1 | 0
CC(Oc1ccc(Cl)cc1Cl)C(=O)NNC(=O)C(=O)N1CCCCC1 (stereo unspecified) | 10
O=S(=O)(NCc1cccc(C(F)(F)F)c1)NCc1ccccc1F | 13
COC(=O)c1ccc(NC(=S)NN2CCCCC2c2cccnc2)cc1 (stereo unspecified) | 5
COc1ccc(Cn2c(=O)[nH]c3cc(C(=O)NCCCN4CCCCCC4)ccc3c2=O)cc1 | 15
Cc1csc(NC(=O)CSc2nnc(-c3cc(C)on3)o2)n1 | 16
O=C(O)/C=C/C(=O)Nc1ccccc1SC(F)(F)C(F)(F)C(F)(F)F | 14
CC1(C)CC(=O)c2cnc(NC(=O)CSC(=S)N3CCCCC3)nc2C1 | 26
COC(=O)c1c(NC(=O)c2cccnc2)sc(C(=O)N(C)C)c1C | 17
Cc1ccc(C(=O)N[C@H](C(=O)OCC(=O)NC2CCS(=O)(=O)C2)C(C)C)cc1 (stereo partly specified) | 13
COc1cccc(C2Cc3ccccc3C(=O)O2)c1 (stereo unspecified) | 3
Cc1nn(C)c(C(=O)Nc2ccc(Br)cc2F)c1Br | 15
Cc1ccc(-n2nnnc2-c2cnoc2-c2cccc(F)c2)cc1 | 3
CC(C)Oc1cccc(C(=O)C2CCCN(C(=O)c3ccsc3)C2)c1 (stereo unspecified) | 5
CCOc1cc(NC(=O)CCl)c(OCC)cc1NC(C)=O | 13
CC(C)n1cnc2cc(NCc3nc4ccccc4n3C)ccc21 | 11
C#CCN(C)CC/C=C1\c2ccccc2CSc2ccccc21 | 9
COc1ccc(CNC(=O)c2coc(=O)c3ccccc23)c(OC)c1 | 4
CC(Sc1nc2ccccc2n1C)C(=O)Nc1ccc(N2CCOCC2)cc1 (stereo unspecified) | 5
O=C(CCn1nc(-c2ccccc2)c2ccccc2c1=O)NN1CCOCC1 | 3
Cc1ccc([N+](=O)[O-])cc1S(=O)(=O)NCCc1c(C)[nH]c2c(C)cccc12 | 10

A different layout for some results above.
CC(C)c1cccc(OCCCCN(C)C)c1
  Calb biofilm kill: 10
Cc1nn(C)c(C(=O)Nc2ccc(Br)cc2F)c1Br
  Calb biofilm kill: 15
COc1ccc(/C=N/NC(=O)CCn2cnc(-c3ccccc3)c2-c2ccccc2)cc1
  Calb biofilm kill: 22
CCc1cc(-c2nc(N)ncc2-c2ccc(Br)cc2)c(O)cc1OC
  Calb biofilm kill: 20

The list goes on:
SMILES | Calb biofilm kill
COc1ccc(N2CCN(C(=O)Cn3nnc(-c4ccc(N(C)C)cc4)n3)CC2)cc1 | 14
CCCc1cc(C(=O)OC)c(NC(=O)CCCC(=O)O)s1 | 5
O=C(Nc1nnc(CC2=CCCCC2)s1)Nc1ccccc1F | 21
CCCCN(Cc1cc2cccc(C)c2[nH]c1=O)S(C)(=O)=O | 20
Cc1cc(NC(=O)c2ccc(F)cc2)n(-c2ccccn2)n1 | 3
Nc1cc(S(=O)(=O)c2ccc(O)c(N)c2)ccc1O | 12
COc1ccc(N2CCN(C(=O)C3CCCN(S(=O)(=O)c4c(C)noc4C)C3)CC2)cc1 (stereo unspecified) | 16
COc1ccc(N2CCN(CC(=O)c3c[nH]c4ccccc34)CC2)cc1 | 12
COc1ccc(-c2nc3n(c2C)Cc2ccccc2-3)cc1 | 14
Cc1cc(C)c2nc(SCC(=O)NNC(=O)c3ccco3)c(C)cc2c1 | -3
OCC1(CCCc2ccccc2)CCN(Cc2ccc(F)cc2)CC1 | -4
COc1ccc(NS(=O)(=O)c2cc(NC(=O)CNC(=O)c3cccc(OC)c3)ccc2C)cc1 | 6
CCc1ccc(OCC(=O)N/N=C(\C)c2ccc(O)cc2O)cc1 | 15
COc1ccc2nccc(/C=C/c3ccnc4ccc(OC)cc34)c2c1 | 17
CC(=O)NC(=S)Nc1cccc(S(=O)(=O)NC2=NCCC2)c1 | 4
CN(C(=O)c1ccc2c(=O)n3c(nc2c1)CCCCC3)c1ccccc1Cl | 14
CC(NCC(c1ccco1)N1CCCCC1)C(=O)NC1CCCC1 (stereo unspecified) | 18
COCc1c(Br)c(C)nc(OCC(=O)N/N=C/c2ccc(C)o2)c1C#N | 11
COC(=O)[C@@H]1CCCN1Cc1c(C(=O)N2CCCCC2)nc2c(C)cccn12 | 27
COc1ccc(CCNC(=O)c2ccc(Cl)cc2Cl)cc1OC | 17
CC(C)(C)C(=O)O/N=C(\N)Cc1ccc(-c2csnn2)cc1 | 22
CNC(=O)C(=O)NCC1OCCCN1S(=O)(=O)c1cccs1 (stereo unspecified) | -29
O=C(N/N=C\c1ccco1)Nc1cccc(Cl)c1 | 10
Cc1ccc(-n2c(SCC(=O)N3CC(=O)Nc4ccccc43)nc3ccccc3c2=O)cc1 | -1
Cn1cccc1/C=N/NC(=O)CNc1ccc2ccccc2c1 | 33
Cc1nc(S(=O)(=O)Nc2ccc3c(c2)OCCO3)cn1C | -6
O=C(NCc1ccco1)/C(=C\C=C\c1ccccc1)NC(=O)c1ccco1 | 17
CCOC(=O)N1CCN(Cc2nc(N)nc(Nc3ccc(C)cc3C)n2)CC1 | 26
CCC(=O)c1c(NC)cc(C)oc1=O | 8
CCc1nnc(/N=C/c2c(O)n(-c3ccc(Cl)cn3)c(=O)c3ccccc23)s1 | -2

An excerpt from above in order of molar mass, ascending.
SMILES | Calb biofilm kill
O=C1c2cccc3cccc(c23)C(=O)N1CCc1ccccc1 | 19
Cn1cccc1/C=N/NC(=O)CNc1ccc2ccccc2c1 | 33
CNC(=O)C(=O)NCC1OCCCN1S(=O)(=O)c1cccs1 (stereo unspecified) | -29

The list goes on:
SMILES | Calb biofilm kill
COC(=O)CCC(=O)OC1(C)C(=O)C=C2C=C(C3CC3)N(CC3CC3)C=C2C1=O (stereo unspecified) | 11
CC(C)CCNC(=O)CCCC1=NS(=O)(=O)c2ccccc2N1 | 16
CC(C)c1onc(C(=O)N2CCN(c3ccccc3)CC2)c1[N+](=O)[O-] | 2
CCO[C@H]1OC(C(=O)NC2CC2)=C[C@@H](c2coc3ccccc3c2=O)[C@@H]1CCCO | 21
COC(=O)N/N=C(\C)c1cccc(C(F)(F)F)c1 | 10
CCc1cccc(NC(=O)c2cc(OC)c(OC)c(OC)c2)c1 | 2
CC(C)NC(=O)NC(=O)COC(=O)CCCSc1nc2ccccc2s1 | -6
O=C1CN(C(=O)c2ccc(Br)o2)C(c2ccc(F)cc2)c2cc(F)ccc2N1 (stereo unspecified) | 15
COc1ccc(C2c3c(ccc4ccccc34)Oc3ncn4nc(Cc5ccccc5)nc4c32)cc1OC (stereo unspecified) | 12
C[n+]1ccn(CC(=O)c2ccc(Br)cc2)c1 | 0
O=C(CCCNC(=O)/C(=C/c1ccc(F)cc1)NC(=O)c1ccccc1)OCc1ccccc1 | 20
COc1cccc(NC(=S)NCc2ccco2)c1 | 6
